2A StopGo: High Throughput Screening for Foot and Mouth Disease Virus Antivirals. AID 1159524, 2015. Potency, µM (highest dose often 57.9 µM), without a hit: at the highest dose signal change, negative = less light. 410,000 tested, 1.2% active. human cells with a luciferase reporter of 2A StopGo recoding; control for the full effect not named in the record; active = well fitted falling curve with a large enough effect; inconclusive = small, poorly fitted or top-dose-only effect; inactive = no such curve, though single readings can be large or run the other way; tested in HEK293T cells; further: on the % scale 0 is the no-effect control and ±100 the full control effect; nearly all actives have a fitted effect of over 45% in size; luciferase light after 4 h
LASV entry inh: qHTS for Inhibitors of binding or entry into cells for Lassa Virus | Lassa virus pseudotype entry inhibition, cell reporter; control for the full effect not named in the record | Potency, µM (doses to about 37.9 µM), without a hit: top-dose activity change, negative = inhibition, hits mostly inhibitors | 300,000 tested, 1.2% active; active means well fitted inhibition curve with a large enough effect; inconclusive means small, poorly fitted or top-dose-only effect, or effect the other way; inactive means flat fitted curve, though single readings scatter; tested in HEK293 cells; further: on the % scale 0 is the no-effect control and ±100 the full control effect; nearly all actives have a fitted effect of over 50% in size; luciferase read-out
Cruzain Triton: qHTS Assay for Promiscuous and Specific Inhibitors of Cruzain (with detergent); purified cruzain, Z-FR-AMC fluorescence, 0.01% Triton; Potency, µM, for the others: max response, negative = inhibition, actives largely listed as inhibitors; 200,000 tested, 0.43% active; AID 1478, 2009; active means well fitted curve in the direction sought with a large enough effect; inconclusive means small, poorly fitted or top-dose-only effect, or another doubt; inactive means no such curve, though single readings can be large; an effect the other way counts as inactive or inconclusive;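 further: plate controls were neutral wells for no effect and buffer without enzyme for full effect; nearly all actives have a fitted effect of over 40% in size; top concentration of the series not given in the record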
Target sequence (P25779 123-467 limits assumed): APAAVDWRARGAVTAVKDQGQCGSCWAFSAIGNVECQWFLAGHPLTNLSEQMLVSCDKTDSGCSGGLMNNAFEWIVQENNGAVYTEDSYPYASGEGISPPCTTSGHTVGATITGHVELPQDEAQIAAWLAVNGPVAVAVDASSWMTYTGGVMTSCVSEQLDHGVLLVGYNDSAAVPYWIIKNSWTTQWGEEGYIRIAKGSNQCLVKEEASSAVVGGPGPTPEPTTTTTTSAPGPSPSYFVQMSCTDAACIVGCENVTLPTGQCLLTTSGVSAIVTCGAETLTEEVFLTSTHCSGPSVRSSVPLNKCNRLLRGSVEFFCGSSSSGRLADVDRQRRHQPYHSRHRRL
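Z-FR-AMC hydrolysis (2 uM substrate) by cruzain (1.5 nM) monitored kinetically at ex 360/em 450 nm after 15 min room-temperature compound exposure; 0.01% Triton X-100, pH 5.5, 5 mM DTT.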
RE007 growth inh: qHTS Assay for Inhibitors of the HIV-1 protein Vpr; 360,000 tested, 0.21% active; AID 651644, 2012; Potency, µM (top dose mostly 92.2 µM), inactives show at the highest dose activity change, negative = less growth; S. pombe RE007 Vpr strain, BacTiter-Glo ATP luminescence, 24 h; control for the full effect not named in the record; active = well fitted falling curve with a large enough effect; inconclusive = small, poorly fitted or top-dose-only effect; inactive = no such curve, though single readings can be large or run the other way;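 further: on the % scale 0 is the no-effect control and ±100 the full control effect; nearly all actives have a fitted effect of over 50% in size; the assay follows cell death caused by Vpr and the record does not say whether a fall means rescue or toxicity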
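Fission yeast strain RE007, carrying one chromosomally integrated HIV-1 vpr copy, was seeded at OD 0.01 in PMG+AL medium with 23 nL pinned compound. After 24 h at 30 °C and 99% humidity, viability was read by BacTiter-Glo luminescence.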
NS1 function inh: qHTS Assay for Inhibitors of Influenza NS1 Protein Function | S. cerevisiae slowed by influenza A NS1, growth recovery by OD600 | Potency, µM (highest dose often 46.1 µM), for the others: top-dose activity, positive = more growth | 270,000 tested, 0.4% active | AID 2326, 2010; further: actives are rising curves; nearly all actives have a fitted effect of over 50% in size
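Recovery from NS1-induced slow growth read by OD600 in budding yeast switched to galactose assay medium (pH 6.0, -URA) at 1:100 dilution. Compound 23 nl per well; the matching strain lacking NS1 serves as control.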
Marburg entry inh: qHTS for inhibitors of binding or entry into cells for Marburg Virus | Marburg virus pseudotyped entry inhibition, cell reporter; control for the full effect not named in the record; about a third of the inactives were read at about 46 µM | Potency, µM (top dose mostly 37.8 µM), for the others: at the top dose activity change, negative = inhibition, most hits filed as inhibitors | 300,000 tested, 1.8% active | AID 540276, 2011; active = well fitted inhibition curve with a large enough effect; inconclusive = small, poorly fitted or top-dose-only effect, or effect the other way; inactive = flat fitted curve, though single readings scatter; tested in HEK293 cells; about a fifth of its hits are not listed in these tables; further: on the % scale 0 is the no-effect control and ±100 the full control effect; luciferase read-out
Cruzain noTriton: qHTS Assay for Promiscuous and Specific Inhibitors of Cruzain (without detergent) | Cruzipain (Trypanosoma cruzi), P25779 | purified cruzain, Z-FR-AMC fluorescence, no detergent | Potency, µM, for inactives: max response, negative = inhibition, actives largely listed as inhibitors | 200,000 tested, 2.3% active; active means well fitted curve in the direction sought with a large enough effect; inconclusive means small, poorly fitted or top-dose-only effect, or another doubt; inactive means no such curve, though single readings can be large; an effect the other way counts as inactive or inconclusive;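 further: plate controls were enzyme without inhibitor for no effect and buffer without enzyme for full effect; nearly all actives have a fitted effect of over 40% in size; top concentration of the series not given in the record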
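Purified cruzain at 1.5 nM, pre-incubated 15 min with compound at room temperature in 100 mM sodium acetate pH 5.5, 5 mM DTT, 0.00005% Triton X-100. Reaction started with 2 uM Z-FR-AMC; AMC fluorescence increase over 60 s gives rate.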
SARS PLpro yeast: qHTS of Yeast-based Assay for SARS-CoV PLP; S. cerevisiae expressing SARS-CoV PLpro, growth rescue; control for the full effect not named in the record; Potency, µM (top dose mostly 32.9 µM), inactives show at the top dose activity, positive = growth rescue; 330,000 tested, 0.19% active; AID 485353, 2010; further: 0% is about no effect; nearly all actives have a fitted effect of over 55% in size; growth read by luminescence after 48 h
* hit, by the source's call; ? = inconclusive; · = no result given; & = joins results of further samples; [ ] = another dose, or the depositor's remark. Unless noted, the call rests on the fitted dose curve; in most records, active means well fitted rising curve with a large enough effect; inconclusive means small, poorly fitted or top-dose-only effect; inactive means no such curve, though single readings can be large or run the other way. Potency means the concentration at half of the fitted maximal effect. Rows are unselected. Share with any hit: about 4.7%.

smiles,2A StopGo,LASV entry inh,Cruzain Triton,RE007 growth inh,NS1 function inh,Marburg entry inh,Cruzain noTriton,SARS PLpro yeast
CC(=O)Nc1ccc(NC(=O)C(=O)c2cn(CC(=O)N3CCCC3)c3ccccc23)cc1,-6%,4%,·,3%,5%,1%,·,1%
Cc1ccc(CNc2oc(COc3ccccc3Cl)nc2C#N)cc1,0%,-29%,-4.4%,4%,-13%,-28%[46.1 µM],-7%,-1%
Cc1nnsc1C(=O)NNS(=O)(=O)c1cc(C(F)(F)F)cc(C(F)(F)F)c1,54%[activator],?,·,-1%,1%,-14%[46.1 µM],·,1%
O=C(Cn1cc([N+](=O)[O-])ccc1=O)N1CCc2ccccc21,0%,6%,·,3%,·,-15%,·,3%
Cc1nc(C)c(CCNC(=O)c2ccccc2Br)s1,-18%,2%,?,?,-4%,-4%,-25%,16%
CNC(=O)COC(=O)COc1ccc2c(C)cc(=O)oc2c1,-9%,-10%[46.1 µM],·,-5%,·,2%[46.1 µM],·,0%
COC(=O)c1ccccc1NC(=O)CN(c1ccc(C)cc1)S(C)(=O)=O,-20%,·,·,4%,0%,·,·,0%
COc1ccc(S(=O)(=O)NC(Cc2cnc[nH]2)C(=O)O)cc1 (stereo not given),-4%,6%,-3.1%,-10%,1%,9%,8%,0%
CCn1c(SCC(=O)Nc2nnc(C)s2)nnc1C(C)NC(=O)c1ccccc1F (stereo not given),8%,18%,·,2%,-5%,-7%[46.1 µM],·,2%
CN1CC[C@@]2(C)c3cc(O)ccc3N(C)C12 (stereo not given in full),·,8.2µM*,-7.8%,·,13µM*,7.9µM*,-3%,·
COc1ccc(S(=O)(=O)Nc2cc(C(=O)NCCCN3CCOCC3)ccc2N2CCOCC2)cc1,-6%,7%,·,2%,·,-12%,·,2%
COc1ccc(NC(=O)N(C(C)C)C2CCN(C(C)=O)CC2)c(OC)c1,-6%,17%[46.1 µM],0.3%,·,·,·,1%,·
CC(=O)Nc1cccc(OCC(=O)NC(C)C(C)C)c1 (stereo not given),9%,-8%,2.0%,1%,2%,9%,-3%,9%
Cc1ccc(C)c(C(=O)NCCN(C)C)c1,8%,-2%,-15%,4%,0%,9%,-13%,1%
Cc1ccc(Cn2c(=N)c(C(=O)NC3CCCCC3)cc3c(=O)n4ccccc4nc32)cc1,-1%,·,·,8%,7%,·,·,-3%
COc1cc(NC(=O)CCc2nc3cccnc3n2Cc2cccs2)cc(OC)c1OC,?,-4%[46.1 µM],-4.2%,·,·,?,24%,·
CC1=CC(C)C2(CO)COC(c3ccc(O)cc3)C1C2C (stereo not given),-9%,?,·,-5%,1%,-10%[46.1 µM],·,-1%
N#CCCN(C(=O)COC(=O)c1n[nH]c2ccccc12)c1ccccc1,-1%,-3%,·,2%,·,1%,·,0%
CCN1C(=O)[C@H]2[C@H]3[C@H](O)[C@H](O)C/C(=N\O[C@H](C)c4cn([C@H](CO)Cc5ccccc5)nn4)[C@@H]3CC[C@H]2C1=O,·,6%,2.6%,·,-9%,-21%,2%,2%
Cc1cc(C(=O)NCCCC(=O)O)c(C)o1,-19%,-8%,2.1%,14%[3.69 µM],1%,2%,-1%,-6%
c1ccc(-c2ccccc2-c2nc(-c3ccncc3)no2)cc1,-15%,-2%,2.7%,-8%,-132%,?,-1%,-11%
COc1ccc(CNC(C)CCc2ccccc2)cc1 (stereo not given),1%,-1%[46.1 µM],·,6%,-5%,?,·,8%
CC1(c2ccc(OC(F)F)cc2)NC(=O)N(CC(=O)Nc2ccc(S(N)(=O)=O)cc2)C1=O (stereo not given),-3%,-1%,·,-10%,-9%,-17%,·,3%
COc1cc(/C=N/NC(=O)C(NC(=O)c2ccccc2)c2n[nH]c(=O)c3ccccc23)ccc1OCC(N)=O (stereo not given),-14%,·,·,19%,-16%,·,·,6%
CC1CCN(S(=O)(=O)c2ccc3[nH]c(=O)ccc3c2)CC1,-14%,·,·,-5%,4%,·,·,-12%
Cn1c(=O)[nH]c(=O)c2c1nc(N1CCN(CCO)CC1)n2Cc1ccccc1Cl,3%,·,·,-1%,31%,·,·,-2%
O=C(COc1ccc(F)cc1Br)Nc1ccccc1N1CCOCC1,-27%,-25%,·,2%,·,?,·,-4%
CCOC(=O)c1sc(NC(=O)C2CC(=O)N(c3ccc(OCC)cc3)C2)nc1C (stereo not given),-14%,8%,·,5%,0%,3%[46.1 µM],·,3%
NC(=O)CC(NC(=O)c1cccc(Br)c1)c1ccc(N2CCN(c3ccc(F)cc3)CC2)c([N+](=O)[O-])c1 (stereo not given),-27%,·,·,-4%,21%,·,·,-2%
Cc1c[n+]([O-])ccc1[N+](=O)[O-],-18%,7%[46.1 µM],·,9%,·,-2%[46.1 µM],·,·

Reprinted from the part before: 2 compounds; new compounds follow.
smiles,2A StopGo,LASV entry inh,Cruzain Triton,RE007 growth inh,NS1 function inh,Marburg entry inh,Cruzain noTriton,SARS PLpro yeast
NC(=O)CC(NC(=O)c1cccc(Br)c1)c1ccc(N2CCN(c3ccc(F)cc3)CC2)c([N+](=O)[O-])c1 (stereo not given),-27%,·,·,-4%,21%,·,·,-2%
Cc1c[n+]([O-])ccc1[N+](=O)[O-],-18%,7%[46.1 µM],·,9%,·,-2%[46.1 µM],·,·
CCOc1ccc(N2C(=O)C3C(c4ccccc4F)NN(C(=O)c4ccc(C)cc4)C3C2=O)cc1 (stereo not given),0%,4%,-5.5%,5%,5%,4%,5%,-3%
COc1ccc(NC(=O)CN2C(=O)COc3ccc(S(=O)(=O)N4CCOCC4)cc32)cc1Cl,-10%&2%,-2%&13%[46.1 µM],-2.0%,-1%,-9%,0%&0%[46.1 µM],2%,-1%
COc1cccc(NC(=O)Cn2c(=O)n(CC(=O)NCCc3ccccc3)c(=O)c3sccc32)c1,-21%,4%[46.1 µM],-3.0%,·,·,3%[46.1 µM],1%,·
CCOC(=O)c1ccc(N2C(=O)C(O)=C(C(C)=O)C2c2ccccn2)cc1 (stereo not given),-15%,-3%,-2.1%,0%,-2%,2%,-3%,3%
O=c1[nH]c2ccccc2cc1CN(Cc1cccnc1)S(=O)(=O)c1ccc([N+](=O)[O-])cc1,?,·,·,-7%,19%,·,·,-4%
CC(=O)c1c(COC(=O)c2ccco2)nc2ccccc2[n+]1[O-],-2%,4%,-0.2%,-9%,2%,?,-6%,-3%
COC/C=C/C1=CC2=CC(=O)C(C)(OC(=O)c3cnc4ccccc4n3)C(=O)C2=CN1C(CO)CO (stereo not given),-6%,·,·,-5%,-1%,·,·,2%
CC(C)(Cc1ccc(O)cc1)NC(=O)SCc1ccccc1,-9%,?,·,-16%,-39%,?,·,·
Cc1cccc(C(=O)NCC(=O)Nc2ccncc2)c1,-14%,0%,·,0%,·,-8%,·,·
Cc1ccc2nc(N3CCN(c4cccc(Cl)c4)CC3)c(-n3nc(C)cc3C)nc2c1,-18%,-3%[46.1 µM],-1.4%,·,·,?,1%,·
Cc1noc(C)c1C(=O)N1CCC(C(=O)c2ccccc2)CC1,-6%,-13%,·,2%,4%,11%,·,0%
CC1=C(C(=O)OCc2ccccc2)C(c2ccccc2OC(F)F)NC(=O)N1 (stereo not given),·,6%,-6.8%,1%,1%,-20%,3%,6%
Cc1occc1C(=O)NNC1=CC(=O)CC(C)(C)C1,-14%,-1%,0.0%,7%,8%,-2%,-3%,9%
COc1ccc(-n2c3nc4ccccc4nc3c3c(=N)oc(C)nc32)cc1,-1%,-1%,-8.9%,-15%,10%,-1%,?,5%
CCOC(=O)c1c(CN2CCC(C)CC2)oc2ccc(OC)cc12,-23%,?,-4.0%,-11%,-9%,1%,-14%,-7%
CCOc1ccc(-c2nnc(N)s2)cc1,·,-21%,6.2%,-15%,-4%,24%,-10%,-5%
COc1ccc(CNc2nc(-c3ccccc3)nn2C(=O)c2ccccc2OC)cc1,0%,?,-2.8%,·,·,-9%[46.1 µM],-19%,·
CCOC1=NN(c2ncc(C(F)(F)F)cc2Cl)C(=O)/C1=C/N(C)C,3%,8%,·,-8%,3%,1%[46.1 µM],·,1%
C=C1C(=O)OC2CC(C)C3C=CC(=O)C3(C)C(O)C12 (stereo not given),8.9µM*,1.3µM*,·,-5%,·,0.63µM*,·,·
Cc1oc2ncn(CC(C)C)c(=O)c2c1C(=O)N1CCN(c2ccccc2F)CC1,-5%,27%[46.1 µM],-0.6%,·,·,·,6%,·
CC(C)(C)c1ccc(-n2ncc3c2CCCC3NC(=O)c2ccncc2)cc1 (stereo not given),?,-20%,·,-22%,·,-24%,·,·
Nn1c(SCc2cccc(Br)c2)nnc1-c1cccnc1,2%,-10%,·,0%,2%,1%[46.1 µM],·,0%
CCCOc1ncnc2c1[nH]c1ccc(C)cc12,-23%,·,·,-21%,2%,·,·,-2%

High-throughput results deposited in PubChem BioAssay by National Center for Advancing Translational Sciences (NCATS).
